High-throughput results from PubChem BioAssay.
FGF22 binding – FGF22 (human) thermal shift binding. actives 1.5% (n = 340,000). recombinant FGF22 thermal shift, SYPRO orange fluorescence; percent of sucrose octasulfate shift, DMSO zero. calls only at 9.99 µM;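 active means melting point raised past a set limit in the mean and every replicate; inconclusive means no clear call; three in four hits are not shown here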
Target sequence (Q9HCT0 whole entry, looked up): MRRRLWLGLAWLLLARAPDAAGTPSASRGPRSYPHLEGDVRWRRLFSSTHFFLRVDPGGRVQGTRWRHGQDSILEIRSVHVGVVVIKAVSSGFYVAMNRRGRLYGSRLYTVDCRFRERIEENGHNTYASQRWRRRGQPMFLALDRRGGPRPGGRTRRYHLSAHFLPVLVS
MLL AF4-AF9 inh – MLL-AF4/AF9 protein interaction inhibition; AlphaScreen, biotin-AF4 peptide binding to FLAG-AF9; inhibition, % at 10 µM; actives 0.47% (n = 350,000);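 active means every replicate reaching a set inhibition limit, whatever the replicate mean, cut at about 25% in these data; inconclusive means mean inhibition reaches that limit but some replicates miss it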;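 further: 0% = plate neutral control median and 100% = total signal loss; the record names both 10 and 1 µM as test concentration; the first replicate is given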
Target sequence (P42568 whole entry, looked up): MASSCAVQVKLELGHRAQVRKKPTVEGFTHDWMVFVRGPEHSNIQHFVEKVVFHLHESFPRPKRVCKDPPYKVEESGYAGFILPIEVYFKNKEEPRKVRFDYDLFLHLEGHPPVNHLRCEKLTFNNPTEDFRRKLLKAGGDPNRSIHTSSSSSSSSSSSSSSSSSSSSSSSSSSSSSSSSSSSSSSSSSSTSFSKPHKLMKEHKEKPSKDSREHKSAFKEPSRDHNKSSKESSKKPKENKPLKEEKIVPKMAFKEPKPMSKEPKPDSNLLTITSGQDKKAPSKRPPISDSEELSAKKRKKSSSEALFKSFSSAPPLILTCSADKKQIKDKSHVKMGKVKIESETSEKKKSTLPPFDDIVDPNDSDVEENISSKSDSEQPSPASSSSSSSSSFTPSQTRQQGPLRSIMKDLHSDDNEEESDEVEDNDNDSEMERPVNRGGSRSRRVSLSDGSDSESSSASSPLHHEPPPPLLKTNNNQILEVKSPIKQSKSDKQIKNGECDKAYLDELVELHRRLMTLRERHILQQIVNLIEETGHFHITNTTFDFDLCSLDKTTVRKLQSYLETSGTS
Ecoli rRNA inh – inhibits bacterial ribosomal RNA function over humanized ribosomes; E. coli WT GFP vs humanized-ribosome RFP mutants, fluorescence, 24 h; active compounds read low; DMSO median 0, no signal -100; GFP signal change (wild-type ribosome), % (no concentration beside the values); actives 1.6% (n = 350,000); AID 720706;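 active means significant combined selectivity score with lowered wild-type GFP, culture density cut under 30%, mutant RFP and density less affected; inactive means any of these conditions unmet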; further: one replicate is shown; some compounds called inactive have numbers as strong as hits
Calb FLC – C. albicans growth modulation with fluconazole | actives 0.57% (n = 300,000) | C. albicans CaCi-2 (fluconazole-resistant clinical isolate) + fluconazole, Alamar Blue growth, 48 h | growth inhibition, % (concentration not given with the values);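 active means most replicates above 75%; inconclusive means exactly half above 75%; inactive means most below 75%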;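 further: all wells also contain fluconazole at 8 µg/ml as a sub-toxic cotreatment; 0% = median of DMSO wells and 100% = median of geldanamycin control wells; wells of about 8 µL received 7.5 nL stock; the first replicate is given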
Beta apoptosis – blocks beta cell apoptosis; protection from apoptosis, % (concentration not given with the values); actives 0.8% (n = 300,000); INS-1E cytokine-induced death, ATP luminescence, 48 h; percent of positive-control rescue, neutral wells zero;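 active means all replicates at 75% or more, or half of them and the mean; inconclusive means half reach 75% but not the mean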;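 further: 0% = cytokine-treated negative control wells and 100% = positive control rescue; higher means more ATP so stronger rescue from cytokine killing; wells of about 40 µL received 100 nL stock; the first replicate is given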
RanGTP-Imp inh – disruptors of Ran-importin-beta complex formation – biochemical, FRET, CFP-Ran, YFP-importin-beta, homogeneous, primary screen. AID 2216. cell-free CFP-Ran/YFP-importin-beta FRET ratio. actives 1.1% (n = 300,000). inhibition, % (test concentration not listed);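 active means most replicates above 15%; inconclusive means exactly half above 15%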;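 further: 0% = DMSO wells and 100% = Ran loaded with GDP instead of GTP; wells of about 40 µL received 100 nL stock; the first replicate is given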
T cruzi inh – T. cruzi replication inhibition. T. cruzi beta-gal in NIH3T3, luminescence, 90 h. inhibition, % (no concentration beside the values). actives 1.4% (n = 300,000). AID 1885;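 active means mean inhibition across valid replicates above about 55%, limit read from the data; inconclusive means mean below that limit but half or more replicates reach it; inactive means mean below it, under half of replicates reach it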;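 further: signal also drops with host cell toxicity which is not excluded here; 0% = plate median of DMSO wells and 100% = zero luminescence signal; higher percent means less beta-gal luminescence so fewer parasites; stock transfer was 50 nL into about 50 µL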
ALR H2O2 inh – human ALR oxidase inhibition via reduced H2O2. P55789. purified ALR, DTT oxidation, H2O2 HRP-luminol luminescence. inhibition, % (concentration not given with the values). actives 3.8% (n = 290,000). AID 485317;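 active means mean and each replicate at 75% or more; inconclusive means only one of the two met; inactive means neither met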;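 further: stock transfer was 7.5 nL into about 7.5 µL; 0% = neutral wells and 100% = wells with inactivated enzyme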
Target sequence (P55789 whole entry, looked up): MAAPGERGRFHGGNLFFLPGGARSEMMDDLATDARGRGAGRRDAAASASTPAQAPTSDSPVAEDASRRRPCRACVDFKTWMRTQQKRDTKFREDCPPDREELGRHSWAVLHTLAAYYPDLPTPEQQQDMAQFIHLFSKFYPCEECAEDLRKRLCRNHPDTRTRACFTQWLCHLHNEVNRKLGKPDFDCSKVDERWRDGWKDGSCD
Ecoli rRNA inh OD600 – further read-out of Ecoli rRNA inh, marked with its call; OD600 change, %; measured here: OD600 growth;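 optical density of the mix in the first replicate; 0 = DMSO median and -100 = no signal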
Ecoli rRNA inh RFP – also measured in Ecoli rRNA inh; calls as there; RFP signal change, %; measured here: RFP humanized mutant strains;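 first replicate; 0 = DMSO median and -100 = no signal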
* hit, by the source's call; i = inactive; ? = inconclusive; . = no result given. The list is partial; the hit share may differ from the screen's.

cpd	structure	FGF22 binding	MLL AF4-AF9 inh	Ecoli rRNA inh	Ecoli rRNA inh OD600	Ecoli rRNA inh RFP	Calb FLC	Beta apoptosis	RanGTP-Imp inh	T cruzi inh	ALR H2O2 inh
1	C/C(=N\NC(=O)c1cccc([N+](=O)[O-])c1)c1cccnc1	i	-0.6	12	-5	-0.7	0	.	-1.4	-5	-1
2	CN(C)c1ccc(C=NCCC2(O)CCOC(C)(C)C2)cc1 (stereo not drawn)	.	.	.	.	.	1	-6	?	6	-12
3	CN(C(=O)CS(=O)(=O)c1cccc(Cl)c1)c1ccccc1	i	-0.3	8	4	1.3	-13	.	-2.3	10	-2
4	Cc1cc(N2CCN(C)CC2)nc2ccc(NC(=S)N3CCN(c4cccc(Cl)c4)CC3)cc12	i	0.6	-5	3	14	47	42	1.5	50	.
5	O=C(O)c1ccc(N2C(=O)/C(=C/c3ccc(-c4ccc([N+](=O)[O-])cc4)o3)C=C2c2ccccc2)cc1	.	.	.	.	.	1	8	-11	4	58
6	Cc1cccc(C)c1NC(=O)CSc1nnc(C)n1-c1ccccc1	.	.	.	.	.	4	-7	2.7	-7	-5
7	COc1cc(/C=N/NC(=O)c2cccs2)ccc1OCc1ccccc1	.	.	.	.	.	21	6	-0.9	-1	-14
8	CC1C(=O)Nc2ccccc2N1C(=O)c1ccccc1 (stereo not drawn)	.	-2.4	17	4	1.3	-8	-5	4.8	5	6
9	Cc1nn(-c2ccccc2)c(C)c1C(=O)OCC(=O)N1CC(=O)Nc2ccccc21	.	.	.	.	.	-2	1	-1.0	18	-31
10	CCOC(=O)CC(=O)CSCC(=O)Nc1ccc(C)cc1	.	.	.	.	.	17	3	-3.3	-27	100*
11	COc1ccccc1-c1cc(C(=O)NCc2ccccc2)no1	.	.	.	.	.	-19	-5	-1.1	9	-1
12	CCc1noc(C)c1C(=O)Nc1ccc(-c2nnc3n2CCCCC3)cc1	i	0.5	7	14	-2.6	.	-1	-1.4	1	-4
13	Cc1nnc(-c2ccc(Oc3ccc(C)c(C)c3)c([N+](=O)[O-])c2)o1	i	6.2	.	.	.	16	5	-0.2	20	.
14	C=CCOc1cccc(C2C(C(=O)c3ccco3)=C(O)C(=O)N2Cc2ccncc2)c1 (stereo not drawn)	.	.	.	.	.	6	-10	1.0	-1	11
15	CN(Cc1ccccc1)C(=O)CSc1nc2ccccc2[nH]1	i	0.6	-3	2	-0.8	-3	-5	0.3	-1	1
16	Cc1cccc(-c2cc3nc4c(c(N5CCOCC5)n3n2)CCCC4)c1	i	0.7	-33*	-13*	-0.4*	8	2	-1.9	43	?
17	COc1ccc(-c2cc(C(=O)N3CCN(c4ccccc4O)CC3)c3ccccc3n2)cc1	i	-1.2	3	8	0.1	.	9	.	.	.
18	COc1cc(Cl)ccc1OCc1cc(C(=O)N2CCCCCC2)no1	i	-3.6	-5	-12	3.7	-2	-4	-1.1	-2	-4
19	C/C(CC(=O)Nc1ccc2c(c1)OCO2)=N\NC(=O)C(c1ccccc1)c1ccccc1	i	1.2	6	13	-4.8	-11	-3	1.4	12	-2
20	COC(=O)Nc1c(-c2ccccc2)nc2ccc(Cl)cn12	i	2.2	12	17	-0.3	1	-1	-0.5	-3	4
21	COc1cccc(N2CCN(S(=O)(=O)c3ccc4c(c3)CC(C)N4C(=O)C3CC3)CC2)c1 (stereo not drawn)	i	-3.5	-1	0	3.1	0	5	0.6	2	0
22	CCOC(=O)c1cnc2cc(-c3ccc(Cl)cc3)nn2c1N	i	-18	20	9	-0.9	-9	0	?	-4	-17
23	C=CCNC(=O)CC(C)C(CCCCC)C(=O)O (stereo not drawn)	.	.	.	.	.	-4	-3	1.6	-20	3
24	C[C@]12C(=O)N(c3ccccc3)C(=O)N1[C@H]1c3ccccc3OC[C@@H]1[C@H]2c1ccccc1	i	.	5	-6	-1.3	.	4	.	.	1
25	CN(C)C(=O)COC(=O)c1ccc(S(=O)(=O)NCc2ccco2)cc1	i	-2.1	13	7	-2.8	8	-3	-1.3	5	.
26	CSc1ccccc1NC(=O)NCCCl	i	-0.1	14	5	-6.7	0	5	-2.3	-12	-2
27	COc1ccc2sc(-c3ccccc3OC)c(-c3ccc(OC)nc3)c2c1	i	2.6	13	-1	1.3	.	7	.	.	5
28	CC(=O)c1cc(N2CCOCC2)ccc1[N+](=O)[O-]	i	-2.0	3	6	0.3	-5	.	-0.2	3	.
29	COc1ccc(CNC(=S)NNC(=O)c2cc3ccccc3o2)cc1	i	-0.9	-8	21	0.3	27	-5	1.3	-14	.
30	CCN1C(=O)[C@@H]2[C@@H](c3ccc(SC4CCCCC4)cc3)N3CCCC[C@@]3(C(=O)OC)[C@@H]2C1=O	i	0.9	6	-1	0.8	3	2	0.3	28	-6
31	Cc1ccc(C(=O)Nc2ccc(C(=O)N3CCCCC3)cc2)o1	i	-0.6	3	2	0.6	0	28	?	-7	-1
32	Cc1cc(C)nc(SCC(=O)Nc2ccc(S(=O)(=O)N3CCCCC3)cc2)n1	.	.	.	.	.	-41	-2	-0.7	-1	-9
33	CCOC(=O)C1(Cc2ccccc2C)CCCN(C(=O)COC)C1 (stereo not drawn)	i	1.0	0	-5	-0.7	0	.	1.9	6	.
34	COc1cccc(CNC(=O)CCC2CCCN(C(=O)C3CCOCC3)C2)c1 (stereo not drawn)	i	-2.3	7	0	0.4	30	-6	-3.3	-5	-14
35	COc1ccc2[nH]c3c(c2c1)CCNC3c1ccc([N+](=O)[O-])o1 (stereo not drawn)	i	0.7	5	8	4.9	-17	4	-0.5	14	65
36	O=C(CSc1nc(=O)n2ccccc2n1)NCc1ccccc1	i	-2.3	6	18	-1.6	-10	-9	2.9	-4	0
37	Cc1cccc(NS(=O)(=O)c2cc([N+](=O)[O-])ccc2C)n1	i	-0.4	17	13	-7.8	-2	-9	-2.2	0	-4
38	CCOC(=O)C(=O)Nc1ccc(S(=O)(=O)Nc2ncccn2)cc1	.	.	.	.	.	-4	-4	-1.4	-14	1
39	Cc1ccc(NCC(=O)N/N=C/c2c[nH]c3ccccc23)cc1	.	.	.	.	.	7	-4	2.1	-6	49
40	O=C(CSc1nnc(-c2ccc(F)cc2)o1)Nc1ccc(S(=O)(=O)N2CCCC2)cc1	.	.	.	.	.	-2	-4	17*	12	-14
41	COc1ccc(CNC(=O)C/C(C)=N/NC(=O)c2cc(OC)cc(OC)c2)cc1	.	.	.	.	.	-2	-4	3.5	-39	10
42	CC(C)N(Cc1cnn(C)c1)C(=O)C1CCC(=O)N(CCc2cccc(F)c2)C1 (stereo not drawn)	i	-8.0	0	2	3.2	-16	-3	1.4	5	-16
43	CN(C)CCCNc1oc(/C=C/c2cccs2)nc1S(=O)(=O)c1ccccc1	i	0.6	17	8	0.2	.	-3	14	33	-8
44	Cc1cccc(NC(=O)CCC(=O)N/N=C/c2ccco2)c1	i	0.5	-2	-11	-1.2	-5	0	0.7	-34	-5
45	CCCCCCCCCCCCCCCC(=O)NCCc1c[nH]c2ccccc12	i	-1.0	2	5	-4.5	-2	-6	?	2	-4
46	COc1ccc(OC)c(C2CC(=O)Nc3n[nH]c(-c4ccccc4)c32)c1 (stereo not drawn)	i	2.1	6	10	0.2	1	-4	0.6	14	-4
47	C[C@H]1CN=C(Nc2ccccc2)N1CC1CCC1	i	2.5	1	7	-8.1	1	-6	0.3	-6	1
48	C=CCNC(=O)N1CCCC(N2CCN(c3ccccc3OC)CC2)C1 (stereo not drawn)	i	-0.9	19	8	2.7	-1	-4	4.8	1	.
49	CCOC(=O)c1c(/N=C/N(C)C)sc(/C=N/Nc2ccccc2)c1-c1ccccc1Cl	i	5.9	-3	0	-5.1	-37	3	-4.3	47	-6
50	CCSc1nnc(NC(=O)Cc2ccc(OC)c(OC)c2)s1	.	.	.	.	.	7	-5	-2.3	-24	-3
51	NNc1nc(C(F)(F)F)nc2ccccc12	i	0.6	0	-5	0.8	-6	-5	0.9	-1	5
52	CS(=O)(=O)c1ccccc1-c1nc(-c2ccc([N+](=O)[O-])cc2)no1	i	-1.2	7	-6	-2.1	-16	1	-0.5	10	-23
53	CCOc1ccc(N2C(=O)C3=C(C(c4ccc(Cl)cc4)=NCCN3)C2c2cccnc2)cc1 (stereo not drawn)	i	-0.6	1	18	1.6	-18	1	-5.0	-5	-19
54	O=C(N/N=C/c1ccc(Sc2nc3ccccc3[nH]2)o1)c1ccncc1	i	3.4	1	0	-0.4	-3	4	-0.2	-25	56
55	N#CC(c1ccc(F)cc1)c1ccc(C(=O)c2ccccc2)cc1 (stereo not drawn)	.	.	.	.	.	-1	-7	0.6	12	49
56	COc1cccc(OCCCCCCN2CCOCC2)c1	.	.	.	.	.	-7	0	?	7	-18
57	Cc1ccc(Nc2nc3ccccc3nc2Nc2c(C)n(C)n(-c3ccccc3)c2=O)cc1	i	-1.3	6	9	-1.3	-5	0	0.5	-12	-2
58	O=C(O)Cn1nnc(COc2ccccc2)n1	i	-3.5	5	9	-3.7	-5	-2	1.2	-1	2
59	Cc1ccc(C(=O)NC2CCC(C)CC2)s1 (stereo not drawn)	i	-2.2	9	14	-3.5	-2	.	1.0	-12	-7
60	Cc1ccc(-c2nnnn2-c2ccc(C)cc2)cc1	.	-0.8	-9	-18	-1.2	0	2	0.4	-2	2
61	O=C(/C=C/c1ccc([N+](=O)[O-])s1)N1CCCCC1	i	-4.8	-4	4	11	12	-36	1.5	0	.
